Rango complex inh – Rango-importin beta binding inhibition. Potency, µM (series often up to 92.2 µM), for inactives: at the highest dose inhibition of complex formation. Rango CFP/YFP FRET sensor + importin beta, 45 min. 0.031% of 340,000 active; active = rising FRET ratio curve, often small or poorly fitted; inconclusive = mostly compound fluorescence or quenching in the first reads; inactive = flat curves in all reads;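 also: potency is read from the fitted curve at half-maximal effect; 0% = DMSO wells and 100% = buffer wells lacking importin beta; nearly all actives have a fitted effect of over 15% in size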
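Inhibition scored from the CFP 486 nm/YFP 530 nm FRET ratio 45 min after adding 0.125 microM importin beta to 50 nM Rango biosensor preincubated 5 min with compound (room temperature, PBS with DTT, Tween-20, BSA). No-importin wells as positive control.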
GLA inh pH 4.5 – blocks human alpha-galactosidase A at pH 4.5 | AID 1467 | P06280 | purified enzyme, 4-MU-alpha-Gal fluorescence, pH 4.5 | activity change, negative = inhibition, % at 105 µM | 230,000 tested, under 10 active; inconclusive = small, poorly fitted or top-dose-only inhibition, or a rising curve; inactive = flat fitted curve, though single readings scatter; no compound was filed as active;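 also: 0% = full activity with enzyme and -100% = basal without enzyme; dose as in the result columns while the protocol names 77 µM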
Target sequence (P06280 whole entry, looked up): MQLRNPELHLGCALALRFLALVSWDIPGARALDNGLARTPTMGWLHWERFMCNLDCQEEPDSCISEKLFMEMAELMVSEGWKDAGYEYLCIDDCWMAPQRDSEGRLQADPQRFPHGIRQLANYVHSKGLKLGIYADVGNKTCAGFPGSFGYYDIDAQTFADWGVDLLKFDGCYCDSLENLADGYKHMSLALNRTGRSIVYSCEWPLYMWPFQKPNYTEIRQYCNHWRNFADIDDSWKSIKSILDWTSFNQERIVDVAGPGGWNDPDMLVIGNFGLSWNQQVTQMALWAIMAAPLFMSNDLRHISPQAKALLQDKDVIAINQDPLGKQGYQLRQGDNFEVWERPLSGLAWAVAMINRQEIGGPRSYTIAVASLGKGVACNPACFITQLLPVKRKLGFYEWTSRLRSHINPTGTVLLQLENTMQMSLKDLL
Rango dissoc inh – inhibitors of RanGTP-induced Rango-importin beta complex dissociation; 0.071% of 340,000 active; O95149+P62826; Biochemical FRET Rango-importin beta, RanGTP-induced dissociation; Potency, µM (series often up to 46.1 µM), inactives show at the highest dose activity change, negative = inhibition; active means falling FRET ratio curve, often poorly fitted, with flat reads before Ran was added; inconclusive means other falling curves, or compound fluorescence or quenching; inactive means flat or rising ratio curve;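 also: potency is read from the fitted curve at half-maximal effect; % of control where 0% means no effect; nearly all actives have a fitted effect of over 45% in size; -100% = wells without RanGTP and RCC1; the record marks most hits as doubtful in a second field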
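Compounds sat 5 min at room temperature with 0.1 uM Rango biosensor plus 0.25 uM importin beta, then FRET pre-read. RanGTP-RCC1 (0.6 uM Ran, 2mM GTP, 0.2 uM RCC1) added for 45 min, and the CFP/YFP post-read measured blocked complex dissociation.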
miR-21 reporter – raises the signal of a miR-21 reporter | 340,000 tested, under 10 active | Potency, µM (top dose mostly 38.3 µM), without a hit: at the highest dose reporter change, positive = more light | HeLa miR-21 FLuc reporter, luciferase, 48 h; active = well fitted rising curve with a large enough effect; inconclusive = small, poorly fitted or top-dose-only effect; inactive = no such curve, though single readings can be large or run the other way;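 also: % of control where 0% means no effect; miR-21 action dims this reporter so a rising signal means less miR-21 action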
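HeLa cells stably expressing CMV-driven firefly luciferase with a downstream miR-21 binding sequence, endogenously expressing miR-21, were treated with titrations (up to about 40uM final) for 48 hours at 37 degree Celsius. Luciferase luminescence was read after lysis.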
The depositor's hits bear a star; ? = inconclusive; nt = no result given; & = joins results of further samples.

cpd	SMILES	Rango complex inh	GLA inh pH 4.5	Rango dissoc inh	miR-21 reporter
1	OCCN1CCN(c2nc(-c3ccccc3)c3cc(Br)ccc3n2)CC1	?	nt	-11.5%	-6.8%
2	CC(C)c1ccc(CN(C(=O)/C=C/c2ccco2)C2CCS(=O)(=O)C2)cc1 (stereo not drawn)	0.3%	-1.7	-17.7%	-1.8%
3	CCc1ccc(S(=O)(=O)NCCc2csc(-c3cccnc3)n2)s1	3.2%	6.0	15.2%	5.9%
4	CCOC(=O)c1sc2nc(N3CCOCC3)c3c(c2c1N)CCN(C)C3	nt	1.4	nt	-3.7%
5	CCSc1nnc(NC(=O)Cn2cnc3ccccc3c2=O)s1	1.0%	7.6	-2.7%	-0.1%
6	CC(=O)OCC(=O)[C@@]1(OC(C)=O)[C@@H](C)C[C@H]2[C@@H]3C[C@H](F)C4=CC(=O)C=C[C@]4(C)[C@@]3(F)[C@@H](O)C[C@@]21C	-1.4%	nt	1.3%	-24.8%
7	Cc1n[nH]c(=O)c2c(NC(=O)CSc3nnc(-c4ccco4)n3C)oc(C)c12	?	nt	-18.5%	nt
8	Cc1cc2c(cc1S(=O)(=O)CCC(=O)Nc1cccc(C(F)(F)F)c1)OCC(=O)N2	-0.5%	nt	5.0%	1.3%
9	COc1cc(-c2nnc(-c3cc(-c4ccccc4)nc4ccccc34)o2)cc(OC)c1OC	-0.1%	nt	1.0%	nt
10	COc1ccc(S(=O)(=O)N2CCCCC2)cc1NC(=O)CN1C(=O)NC(C)(C2CC2)C1=O (stereo not drawn)	-1.3%	nt	-18.0%	nt
11	CC(=O)c1cnc2c(-c3ccccc3)c(C(F)(F)F)nn2c1C	?	3.9	-22.4%	-16.9%
12	COC(=O)C1=CN(Cc2ccc(OC)c(OC)c2)C=C(C(=O)OC)C1c1ccc(O)cc1	?	nt	?	-21.6%
13	COC(=O)[C@H](C)NC(=O)Nc1ccc(OC)c(OC)c1	0.2%	-4.4	5.1%	-2.7%
14	CCOC(=O)N1CCN(S(=O)(=O)c2ccc(C(=O)Nc3nc4ccccc4s3)cc2)CC1	2.9%	2.7	6.8%	3.5%
15	O=C(COc1ccccc1F)NNC(=O)c1ccc2c(=O)n3c(nc2c1)CCC3	0.2%	nt	-5.3%	nt
16	O=C1/C(=C/c2cccs2)SC(=S)N1N1CCOCC1	-2.7%	-3.5	21.9%	-8.7%
17	Fc1cccc(CN2CCCCCCC2)c1	-3.3%	1.2	42.7%	-3.4%
18	C=CCN(C(=O)Cc1cccs1)c1nc(-c2ccc(S(C)(=O)=O)cc2)cs1	?	nt	?	-43.7%
19	Cc1cccc(C)c1NC(=S)N(CCCN1CCOCC1)Cc1cccnc1	0.0%	-3.0	-8.6%	-1.2%
20	CC(C)C(=O)Nc1ccc(NC(=O)c2ccc([N+](=O)[O-])cc2Cl)cc1	-3.2%	-4.7	-3.9%	-12.8%
21	C/C(=N/NS(=O)(=O)c1cc(C)ccc1C)c1c[nH]c2ccccc12	0.4%	nt	-14.1%	3.4%
22	Cn1nccc1NC(=O)CC(CC(=O)O)c1ccccc1 (stereo not drawn)	-3.7%	0.1	9.3%	-1.0%
23	CN(C(=O)Cn1nc(C(=O)O)c2ccccc2c1=O)c1ccccc1	6.3%	nt	3.3%	0.0%
24	COc1ccc(CCNC(=O)c2coc(=O)c(Br)c2)cc1	-1.5%	nt	-16.6%	4.8%
25	CC(Sc1nc2ccccc2c(=O)n1CC1CCCO1)C(=O)N(C)c1ccccc1 (stereo not drawn)	-1.3%	nt	1.6%	nt
26	Cc1onc(-c2ccccc2)c1C(=O)N1CCCC(C(F)(F)F)C1 (stereo not drawn)	-2.4%	nt	4.0%	-0.4%
27	COc1ccc(CCn2c(N)cc(=O)[nH]c2=S)cc1OC	0.5%	-1.8	14.1%	-26.7%
28	O=C(Cc1c(Cl)cccc1Cl)OCC(=O)N1CCc2ccccc2C1	-0.2%	-11.5	13.4%	-41.6%
29	CC(C)C(=O)Nc1nc2c(c(=O)[nH]1)CCCC2	-4.7%	-6.3	10.3%	6.1%
30	Cc1c(Cl)cccc1NC(=O)C1=COCCO1	-3.4%	nt	-11.3%	nt
31	CC(C)n1cc(CN2CCCC(C(=O)Nc3ccccc3Oc3cccnc3)C2)cn1 (stereo not drawn)	0.5%	nt	4.0%	-0.9%
32	CC(=O)NC1=NN(C(C)=O)C(C)(CS(=O)(=O)c2ccc(C)c(C)c2)S1 (stereo not drawn)	-0.9%	1.0	12.6%	-3.9%
33	COc1ccc(S(=O)(=O)NCc2nc3nc(C)cc(C)n3n2)cc1	-0.2%	nt	?	-1.3%
34	Cc1nc2c(C(=O)N3CCN(c4ccccn4)CC3)cnn2c(C)c1Cc1cccc(Cl)c1	12.1%	0.6	0.6%	1.2%
35	O=C(COC(=O)c1cc(Cl)ccc1O)c1ccc2c(c1)OCO2	1.4%	nt	3.1%	nt
36	COCC(=O)N1CCCC(CNS(=O)(=O)c2ccc(OC)cc2)C1 (stereo not drawn)	?	-9.6	-6.3%	-1.3%
37	CC(Sc1nnc(C2CC2)n1C1CC1)C(=O)Nc1ccc(C(N)=O)cc1 (stereo not drawn)	0.0%	nt	29.9%	nt
38	CC(C)NC(=O)C1(S(=O)(=O)c2ccccc2)CC=CC1	-2.4%	nt	39.3%	0.8%
39	CC(C)(C)NC(=O)C(=O)NCCC1=CCCCC1	1.0%	-0.8	13.7%	-5.0%
40	Cc1cccc(NC(=O)CC2NCCNC2=O)c1 (stereo not drawn)	-1.9%	-23.8	1.3%	-25.9%
41	O=C(c1ccc(Cl)s1)N1CCN(C23CC4CC(CC(C4)C2)C3)CC1	0.7%	nt	9.2%	-4.2%
42	CC(C)(C)NC(=O)C1CCN(c2ccc(S(=O)(=O)N3CCOCC3)cc2Cl)CC1	?	3.5	23.9%	-0.2%
43	CC(C)(CNC(=O)c1cccs1)N1CCOCC1	7.5%	nt	0.6%	nt
44	CCc1ccc(/C=C\C(=O)N2CCCC2)cc1	-0.1%	nt	-4.3%	nt
45	CC(C)OC(=O)c1cn(-c2ccccc2)nc1-c1ccc2c(c1)OCCO2	2.0%	-2.8	18.9%	2.0%
46	CSc1ccccc1NC(=O)c1noc(C)c1[N+](=O)[O-]	5.9%	nt	-10.3%	3.0%
47	O=[N+]([O-])c1ccc(O)c(P(=O)(c2ccccc2)c2ccccc2)c1	6.9%	nt	?	-0.4%
48	CCOC(=O)c1cccc(NC(=O)C2CCCO2)c1 (stereo not drawn)	0.8%	1.7	-11.0%	-6.0%
49	COc1ccc(NS(=O)(=O)c2ccc(NC(=S)NC(=O)/C=C/c3ccccc3)cc2)nn1	1.9%	7.4	-15.2%	-9.0%
50	Cc1cccc(C)c1N1C(=O)CCC(C)(C)C1=O	-0.9%	nt	1.3%	3.5%
51	CCC(=O)Nc1sc(C(=O)Nc2ccccc2OC)c(C)c1C(=O)OC	1.8%	3.2	7.0%	4.7%
52	Cc1nnc(SCC(=O)N2CCCc3ccccc32)[nH]c1=O	-3.3%	1.7	11.5%	-5.9%
53	N#Cc1ccc(CSc2nnc(-c3ccncc3)n2CCc2ccccc2)cc1	0.4%	3.3	-4.3%	19.7%
54	CCN1C(=O)/C(=C\c2ccc3c(c2)OCO3)C(C(=O)OC)=C1C	-0.2%	-0.1	-5.9%	-2.8%
55	Cc1cc(NC(=O)NC(=O)c2cccc(OC(F)(F)C(F)F)c2)n[nH]1	1.2%	0.3	-14.2%	-46.3%
56	O=C(NCCCN1CCOCC1)c1cn(-c2ccccc2)nc1-c1ccc(F)cc1	1.4%	nt	20.9%	nt

(list continues)
cpd	SMILES	Rango complex inh	GLA inh pH 4.5	Rango dissoc inh	miR-21 reporter
57	CC(=O)Nc1ccccc1C(=O)C(=O)NCCc1ccccc1	-2.4%	-15.0	-8.9%	-35.9%
58	CC(C)(C)NS(=O)(=O)c1ccc(NS(=O)(=O)Cc2ccccc2)cc1	-0.1%	5.2	15.0%	-3.3%
59	Cc1ccc(-c2noc(-c3cc(C(C)(C)C)nn3Cc3ccccc3)n2)cc1	1.8%	-5.5	-0.6%	-5.8%
60	CCOC(=O)c1ccc(NC(=S)NNC(=O)c2cc(-c3cccnc3)nc3ccccc23)cc1	2.4%	nt	9.3%	2.1%
61	Cc1ccc(S(=O)(=O)N2CCN(C(=O)CN3CCN(C)CC3)C2)cc1	0.3%	6.7	-4.6%	-2.2%
62	O=C(N/N=C/c1cccc(OCc2ccccc2)c1)c1ccc(Br)o1	4.4%	nt	-14.2%	-13.2%
63	COc1ccc(Cl)cc1NC(=O)CCN1CCN(Cc2ccccc2)CC1	1.1%	nt	-0.8%	-0.9%
64	CCOC(=O)c1ccc(NC(=O)CSc2nnc(CNC(=O)c3c(F)cccc3Cl)o2)cc1	0.8%	1.6	-4.0%	-8.3%
65	COc1ccccc1N1CCN(S(=O)(=O)c2ccc(Br)s2)CC1	-2.4%	-3.4	-2.8%	-11.2%
66	Cc1cccc(C(C)C)c1NC(=O)CSc1ncnc2[nH]ncc12	-2.6%	nt	15.6%	nt
67	O=C1CN(S(=O)(=O)c2ccccc2C(F)(F)F)CCN1	2.7%	-0.8	-16.4%	-4.0%
68	COc1ccc(N)c2c1OCCC2=O	-1.1%	0.4	-0.2%	-0.7%
69	Cc1ccc(-n2cc3ccc([N+](=O)[O-])cc3n2)cc1	?	-1.6	?	-47.6%
70	Cc1ccc(S(=O)(=O)N(C)c2ccc(OC(=O)CN3C(=O)NC(C)(c4ccccc4)C3=O)cc2)cc1C (stereo not drawn)	5.0%	nt	12.1%	nt
71	COc1c(Cl)cc(Cl)cc1C(=O)Nc1ccc(CN2CCOCC2)cc1	-3.4%	nt	2.0%	-5.5%
72	N#CCCn1c(SCC(=O)NCC2CCCO2)nc2ccccc21 (stereo not drawn)	1.1%	-2.0	16.8%	0.3%

Profiles from above:
COc1ccc(N)c2c1OCCC2=O in the list: Rango complex inh: -1.1%; GLA inh pH 4.5: 0.4; Rango dissoc inh: -0.2%; miR-21 reporter: -0.7%
COc1c(Cl)cc(Cl)cc1C(=O)Nc1ccc(CN2CCOCC2)cc1 in the list: Rango complex inh: -3.4%; GLA inh pH 4.5: nt; Rango dissoc inh: 2.0%; miR-21 reporter: -5.5%

Other records follow:
cpd	SMILES	Rango complex inh	GLA inh pH 4.5	Rango dissoc inh	miR-21 reporter
73	Cc1cc(C)c(C)c(/C=C(/C#N)C(N)=S)c1C	-1.9%	-14.3	-0.7%	0.6%
74	O=C(Nc1ccc(C(=O)N2CCC(N3CCOCC3)CC2)cc1)c1ccc(Br)o1	0.0%	nt	-19.2%	nt
75	O=C(CNS(=O)(=O)c1ccccc1)Nc1ccccc1Br	?	nt	1.4%	-4.2%
76	CC(=O)Nc1ccc(NC(=O)[C@H](C)NC(=O)c2ccco2)cc1	-4.0%	nt	0.2%	1.4%
77	COc1ccccc1N1C(=O)CC(Nc2ccc(N3CCOCC3)cc2)C1=O (stereo not drawn)	-1.1%	-20.0	1.2%	-6.9%
78	Clc1ccc(-c2noc(CN3CCOCC3)n2)cc1	0.3%	-5.9	-7.6%	-91.4%
79	Cc1ccc(S(=O)(=O)N2CCC[C@H]2C(=O)OCC(=O)N2CCc3ccccc32)cc1	-0.7%	nt	-5.7%	nt
80	CCn1c(COc2ccccc2C)nnc1SCC(=O)NC1CCCC1	0.4%	-4.1	-9.6%	-2.1%
81	Fc1ccc(C(c2nnnn2CCc2ccccc2)N2CCCc3ccccc32)cc1 (stereo not drawn)	-0.7%	10.0	-4.7%	2.5%
82	CCc1ccc(C(=O)/C=C/Nc2ccc(S(=O)(=O)Nc3cnc4ccccc4n3)cc2)cc1	?	4.1	-14.7%&-15.3%	-8.2%
83	CC(C)CN(C(=O)C1COc2ccccc2O1)c1c(N)n(CC(C)C)c(=O)[nH]c1=O (stereo not drawn)	-0.3%	nt	17.0%	nt
84	Cc1ccc(-n2c(N)c(C(=O)N3CCOCC3)sc2=S)c(C)c1	5.1%	2.0	-7.2%	-11.5%

Not all compounds are listed; rates above refer to the full screens.
